# Source: PubChem BioAssay (several laboratories)
# FGF22 binding = binders of human FGF22 protein, primary screen, FGF22 synaptogenesis inhibitor project, biophysical, thermal shift, single point | actives 1.5% (n = 340,000) | recombinant FGF22 thermal shift, SYPRO orange fluorescence; percent of sucrose octasulfate shift, DMSO zero | calls only at 9.99 µM;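 active = melting point raised past a set limit in the mean and every replicate; three in four hits are not shown here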
# Target sequence (Q9HCT0 whole entry, looked up): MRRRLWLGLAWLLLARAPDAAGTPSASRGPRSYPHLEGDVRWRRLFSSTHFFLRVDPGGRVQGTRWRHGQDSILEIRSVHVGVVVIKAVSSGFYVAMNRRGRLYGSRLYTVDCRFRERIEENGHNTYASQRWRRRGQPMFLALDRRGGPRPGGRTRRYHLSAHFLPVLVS
# HNF4A DNA FP = change in binding of human HNF4A to DNA, primary screen, biochemical, fluorescence polarization, FITC-DNA. Hepatocyte nuclear factor 4-alpha (Homo sapiens), P41235. 1 h. activity change, % at 10 µM. actives 0.3% (n = 360,000); in the data active = activity change above about 30%, passing the limit was not always enough;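 also: controls were the assay level and a saturating level of protein; the project sought stronger binding though the title names inhibitors; some compounds called inactive have numbers as strong as hits; positive values seem to mean higher polarization but the record does not say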
# Target sequence (P41235 whole entry, looked up): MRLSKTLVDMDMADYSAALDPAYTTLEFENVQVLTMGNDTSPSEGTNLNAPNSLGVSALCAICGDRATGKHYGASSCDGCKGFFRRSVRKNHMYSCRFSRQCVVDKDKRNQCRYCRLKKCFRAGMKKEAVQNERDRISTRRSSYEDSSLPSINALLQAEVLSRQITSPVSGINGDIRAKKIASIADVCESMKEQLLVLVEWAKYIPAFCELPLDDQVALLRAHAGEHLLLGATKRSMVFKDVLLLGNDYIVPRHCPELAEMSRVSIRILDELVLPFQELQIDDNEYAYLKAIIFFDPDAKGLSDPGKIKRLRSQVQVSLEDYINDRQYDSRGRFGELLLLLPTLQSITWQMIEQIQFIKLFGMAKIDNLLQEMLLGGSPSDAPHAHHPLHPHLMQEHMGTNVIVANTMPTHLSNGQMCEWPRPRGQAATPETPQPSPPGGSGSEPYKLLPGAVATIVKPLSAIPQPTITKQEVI
# Ecoli growth = E. coli growth inhibition, primary screen, OD600; OD600 absorbance (no concentration beside the values); actives 0.21% (n = 330,000); Escherichia coli growth, 23 h; hits give low values;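 active = OD600 absorbance below the run mean of sample wells minus 3.6 SD, in any replicate, cut at about 0.56 in these data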;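 also: stock transfer was 300 nL into about 60 µL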
# LANA-H2B inh = blockers of LANA interaction with H2A/H2B – biochemical, FP readout, HTS, primary screen | Protein LANA1 (Human herpesvirus 8 type P (isolate GK18)), Q9QR71 | cell-free LANA-H2A/H2B peptide, fluorescence polarization | inhibition, % (no concentration beside the values) | actives 0.6% (n = 320,000) | AID 2629, 2010; in the data active = inhibition mostly above about 10%, no sharp cut-off; inactive = mostly below about 6.7%;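 also: stock transfer was 7.5 nL into about 10 µL; 0% = median of vehicle wells and 100% = median of positive control wells; one replicate is shown; the record names a cut of 25% in any replicate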
# UCH37 inh = inhibitors of human UCH37 deubiquitinase, primary screen, biochemical, Ub-AMC cleavage, fluorescence | purified proteasome/UCH37 | inhibition, % (no concentration beside the values) | actives 0.33% (n = 330,000) | AID 588478, 2011;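 active = mean of two replicates above 20%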;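 also: 0% = compound-free wells with enzyme and 100% = wells lacking proteasome; stock transfer was 100 nL into about 20 µL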
# Target sequence (Q9Y5K5 whole entry, looked up): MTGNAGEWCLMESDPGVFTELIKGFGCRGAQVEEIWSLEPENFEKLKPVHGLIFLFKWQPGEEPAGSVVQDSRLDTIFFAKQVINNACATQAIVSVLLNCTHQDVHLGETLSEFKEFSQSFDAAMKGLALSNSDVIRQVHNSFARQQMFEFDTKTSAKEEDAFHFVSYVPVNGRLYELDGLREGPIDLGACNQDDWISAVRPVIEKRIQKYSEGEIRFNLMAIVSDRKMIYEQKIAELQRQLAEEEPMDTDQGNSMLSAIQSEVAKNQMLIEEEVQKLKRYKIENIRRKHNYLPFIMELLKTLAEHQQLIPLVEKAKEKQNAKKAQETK
#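 Schedule: 30 min plus 25 min, room temperature / Material: human UCH37 within purified proteasomes / Technique: AMC fluorescence intensity at 355/460 nm / Buffer or medium: pH 7.4 Tris-HCl (50 mM) with ovalbumin, ATP-MgCl2, DTT / Controls: wells without proteasome as full block, compound-free enzyme plus substrate as uninhibited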
# ALR H2O2 inh = inhibitors of human ALR sulfhydryl oxidase, primary screen, biochemical, H2O2 detection, HRP-luminol luminescence, single point. purified ALR, DTT oxidation. inhibition, % (concentration not given with the values). actives 3.8% (n = 290,000);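 active = mean and each replicate at 75% or more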;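 also: stock transfer was 7.5 nL into about 7.5 µL; 0% = neutral wells and 100% = wells with inactivated enzyme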
# Beta2AR agonist = beta2AR agonists driving receptor internalization, primary screen, cell-based, FAP fluorogen, flow cytometry; response, % (no concentration beside the values); Am2.2-beta2AR cells; reference of the scale not given here; Beta-2 adrenergic receptor (Homo sapiens), P07550; actives 0.43% (n = 340,000);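 active = response above a set limit, near 3 SD of response in nonfluorescent compounds, cut at about 42% in these data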;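 also: stock transfer was 100 nL into about 11 µL; a reference agonist was the positive control; negative values mostly stem from fluorescent compounds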
# Starred values were filed as active, the others as inactive; i = inactive; · = not tested or not shown. Not all compounds are listed (hit frequency here may not be typical).
# Start of the data: the first 2 records, to show the layout:
SMILES,FGF22 binding,HNF4A DNA FP,Ecoli growth,LANA-H2B inh,UCH37 inh,ALR H2O2 inh,Beta2AR agonist
Cc1cc(=O)[nH]c(SCC(=O)N2CCN(C(=O)c3ccco3)CC2)n1,i,-2.2,0.7,-3.1,0.6,-4,-9
O=C(COc1ccccc1)N1c2ccccc2Sc2ccccc21,i,-1.2,0.66,-0.2,2.0,-3,-7

# Results, previewed entries included:
SMILES,FGF22 binding,HNF4A DNA FP,Ecoli growth,LANA-H2B inh,UCH37 inh,ALR H2O2 inh,Beta2AR agonist
Cc1cc(=O)[nH]c(SCC(=O)N2CCN(C(=O)c3ccco3)CC2)n1,i,-2.2,0.7,-3.1,0.6,-4,-9
O=C(COc1ccccc1)N1c2ccccc2Sc2ccccc21,i,-1.2,0.66,-0.2,2.0,-3,-7
Cc1nc(C)c(-c2nnc(-c3cccc(S(=O)(=O)N(C)C)c3)o2)cc1C(=O)NN,i,-0.4,0.69,0.8,1.9,-4,-7
NC(=O)N/N=C/c1ccc(-c2cccc(C(F)(F)F)c2)o1,i,-3.1,·,-4.5,·,3,-2
CCCC(=O)OCC(=O)Nc1cc(C(C)(C)C)nn1-c1ccccc1,·,-1.9,0.71,1.8,-0.5,-3,1
Cc1cc(=O)oc2c(C)c(OCC(=O)NC3CC(C)(C)NC(C)(C)C3)ccc12,i,-2.8,0.67,1.1,-15,1,2
CC(=O)Nc1ccc(-c2csc(NNC(=O)c3ccccc3)n2)cc1,i,4.7,0.72,-6.1,0.6,100*,0
Cc1ccc(-c2nn3c(C)nnc3s2)cc1NCc1c(F)cccc1Cl,·,2.5,0.63,-7.3,-73,-3,20
CC(C)(C)n1nnnc1C(c1cccnc1)N(Cc1ccccc1)Cc1ccco1 (stereo unspecified),·,-1.3,0.77,4.8,-4.5,-9,12
O=C(NNc1ccccc1[N+](=O)[O-])Nc1ccc(Cl)c(Cl)c1,i,-0.4,0.54,0.8,0.9,-8,-2
COc1ccccc1NS(=O)(=O)c1ccc(N/N=C/c2c(C)nn(-c3ccccc3)c2N2CCCC2)c([N+](=O)[O-])c1,·,2.2,·,2.3,·,-1,2
O=C(CN1C(=O)NC2(CCCCCC2)C1=O)Nc1ccc(S(=O)(=O)N2CCOCC2)cc1,·,-0.5,0.7,0.4,0.5,-17,9
Cn1c(=O)c2c(nc(N3CCOCC3)n2Cc2c(F)cccc2Cl)n(C)c1=O,·,-0.3,0.69,-5.1,5.2,2,-7
CC(=O)c1ccc(S(=O)(=O)N2CCN(C(=O)c3cccc(S(=O)(=O)N4CC(C)OC(C)C4)c3)CC2)cc1 (stereo unspecified),i,-2.1,0.71,·,2.4,·,-13
O=C(O)CCCn1cc(NC(=O)c2ccc(Br)o2)cn1,i,-3.5,0.71,-0.4,7.9,-15,-3
OC1(c2ccccc2F)CCN(Cc2nnnn2Cc2ccc(F)cc2)CC1,i,-12,0.67,2.7,-1.4,-1,2
CN(CC(=O)Nc1cccc(F)c1)CC(=O)N1CCc2ccccc21,i,2.1,0.68,5.3,-0.9,-3,-7
O=C1Cc2cc(S(=O)(=O)Nc3cccc([N+](=O)[O-])c3)cc3c2N1CCC3,i,-1.3,0.69,2.3,1.9,·,0
COc1ccc([C@@H]2[C@@H]3C(=O)N(C(C)(C)C)C(=O)[C@@H]3[C@]3(Cc4ccccc4)C(=O)N(c4ccccc4)C(=O)N23)cc1,i,1.6,·,0.9,-0.1,1,1
CCOC(=O)C1CCN(C(=O)CCS(=O)(=O)c2ccc3c(c2)CCN3C(C)=O)CC1,·,1.1,0.65,-4.7,1.5,-1,1
CC(C)(C)C(=O)Nc1nnc(SCC(=O)NC2CCCCC2)s1,i,1.4,0.65,-2.5,3.3,-9,3
O=C1OCCC1Sc1nc(-c2ccccc2)cs1 (stereo unspecified),·,0.2,0.73,0.1,-0.1,-8,3
COc1ccccc1-n1c(SCC(=O)Nc2ccccc2F)nc2[nH]ncc2c1=O,·,-1.2,0.67,2.9,0.5,-8,1
CC1(C)C(=O)Nc2ccccc2N1C(=O)COC(=O)CSc1ccc(Cl)cc1,i,-3.6,0.69,-2.2,1.6,-2,-8
O=C1CC(c2ccccc2)n2nc(NC(=O)C3CCCO3)nc2N1 (stereo unspecified),·,-2.3,0.69,-3.7,2.3,4,4
COC(=O)COc1ccc(S(=O)(=O)Nc2ccc3c(c2)OCCO3)cc1C,i,4.0,0.67,2.2,1.7,-18,3
CC(C)S(=O)(=O)C/C(N)=N/OC(=O)c1cc(Cl)cc(Cl)c1,i,0.9,0.64,-9.2,4.6,-1,0
CCn1cc(Cl)c(C(=O)Nc2cccc(C(F)(F)F)c2)n1,i,1.5,0.68,-3.0,3.0,-1,0
COc1ccc(C(=O)N(CCN2CCOCC2)CC(=O)NC2CCCC2)cc1OC,·,-0.5,0.65,1.2,-0.3,·,6
COCCC(=O)N1CCC(Oc2ccc(C(=O)N3CCCC(CCCO)C3)cc2)CC1 (stereo unspecified),i,0.0,0.72,18*,4.6,0,-4
Cc1ccc(N2CC(C(=O)Nc3nc4ccc(S(C)(=O)=O)cc4s3)CC2=O)cc1 (stereo unspecified),i,3.7,0.73,-2.7,0.9,-1,3
CCOCCCNC(=O)c1cc2c(=O)n3cccc(C)c3nc2s1,i,0.7,0.66,-0.8,i,-1,-6
CC(=O)O[C@]1(C(C)=O)CC[C@H]2[C@@H]3C=C(C)C4=CC(=O)CC[C@@H]4[C@H]3CC[C@@]21C,i,1.1,·,6.8,0.8,-1,-5
Cc1ccc(NC(=O)CCCC2CCCCC2)c(O)c1,i,0.1,0.74,2.7,0.3,-10,-5
CCCCn1cc(S(=O)(=O)c2ccccc2)c(=O)c2cc(C)ccc21,i,4.3,0.71,6.9,1.7,-13,-2
COc1ccc(C(c2nnnn2C2CCCC2)N2CCN(C3CCCC3)CC2)cc1OC (stereo unspecified),·,-2.0,0.73,-10,-3.4,·,-2
COc1ccc(C(CC(=O)c2ccc(C)cc2)Nc2ccc([N+](=O)[O-])cc2)cc1 (stereo unspecified),i,-3.1,0.78,5.4,9.6,-8,-2
O=C(COc1ccc(F)cc1)NCC1CCCO1 (stereo unspecified),·,4.8,0.67,-8.2,1.0,-7,-3
CC(=O)c1cc2c(cc1NC(=O)Cn1nc(-c3ccc(C)cc3)ccc1=O)OCO2,i,6.7,0.68,-0.7,-7.7,1,3
Cc1cccc(S(=O)(=O)c2c(N)n(/N=C/c3ccccc3)c3nc4ccccc4nc23)c1,·,-0.3,·,-5.7,·,-37,11
CCC(=O)Nc1cccc(C(=O)/C=C/c2cc(Br)ccc2OC)c1,·,3.0,0.73,-5.5,3.0,30,42
O=C(Nc1ccccc1C(=O)O)c1cccc(NC(=O)c2ccccc2Cl)c1,i,-4.9,0.7,-1.0,1.6,35,-5
COc1cccc(CCC(=O)N2CCC(n3nccc3NC(=O)CC(C)C)CC2)c1,i,-3.5,0.67,-2.1,1.1,-3,-1
O=C(CCc1c[nH]c2ccccc12)NCc1cccc(Cl)c1,i,1.3,0.66,4.8,4.3,·,2
O=C(Nc1ccccc1F)C(c1ccccc1)c1ccccc1,·,-1.9,0.65,-3.9,5.2,1,-3
O=C(O)CC1CCC(=C(Cl)Cl)C1 (stereo unspecified),i,-3.3,0.53,-1.2,-1.5,5,25
Cc1ccc(NC(=S)N2CCC(N(C)CC3CCCO3)CC2)c(C)c1 (stereo unspecified),·,1.0,0.76,-5.4,1.0,-2,1
COc1ccccc1C(=O)ON=C1c2ccccc2-c2ccccc21,·,0.5,0.74,-3.2,3.5,5,6

# Copied from the list.
# Value for `O=C(NNc1ccccc1[N+](=O)[O-])Nc1ccc(Cl)c(Cl)c1` under Ecoli growth: 0.54
# Value for `CCC(=O)Nc1cccc(C(=O)/C=C/c2cc(Br)ccc2OC)c1` under UCH37 inh: 3.0

# The listing continues.
SMILES,FGF22 binding,HNF4A DNA FP,Ecoli growth,LANA-H2B inh,UCH37 inh,ALR H2O2 inh,Beta2AR agonist
FCCCOc1ccc(-c2nccc(-c3ccc(F)cc3)n2)cc1,·,0.3,0.8,6.5,1.8,-12,-9
CO/N=C/NC(=O)c1cn(-c2ccc(F)cc2)c(=O)c2ccccc12,·,2.1,0.68,0.3,1.2,-12,10
Cc1ccc(NC2=C(N3CCOCC3)C(=O)c3ccccc3C2=O)cc1,·,-1.8,0.7,2.7,28*,8,-2
C=CCNC(=O)c1ccccc1NC(=O)c1cccc2ccccc12,·,2.1,0.68,2.4,1.0,6,0
COCCNC(=O)c1csc2c1CCCC2,·,-0.3,0.72,-4.0,2.5,-19,0
Cc1ccc(C)c(NC(=O)CS(=O)(=O)c2c[nH]c3ccccc23)c1,·,-4.3,0.67,-1.2,-1.1,-16,7
Cc1ccccc1CNC(=O)c1ccc2ccccc2n1,i,3.0,·,-2.5,·,2,-1
Fc1ccccc1-c1cc2ncccc2cn1,i,-1.7,0.67,5.2,5.4,3,-8
CSc1ncccc1C(=O)NC1CCCCCCC1,i,4.4,0.67,0.5,4.3,1,-20
Cc1cc(C(=O)NCC(c2ccco2)N(C)C)no1 (stereo unspecified),·,1.5,0.72,-0.5,4.8,-6,-4
O=C(c1ccc2nc3ccc(Cl)cc3c(=O)n2c1)N1CCOCC1,·,9.7,0.67,3.1,i,-5,-12
C/C(=N\NC(=S)NCCc1ccccc1)c1ccc(Cl)cc1,·,-1.3,·,-4.0,·,-5,-3
O=C(O)c1ccc(-n2c(-c3ccccc3)n[nH]c2=S)cc1,·,-4.1,0.69,-1.1,0.8,64,5
COc1ccc(Cl)cc1NC(=O)COC(=O)CCNS(=O)(=O)c1cccs1,i,1.1,0.7,·,0.9,·,8
C/C(CC(=O)NC(C)C)=N\NC(=O)COc1cc(C)c(Br)cc1Br,·,0.9,·,0.3,·,-2,-20
Cc1cc(S(=O)(=O)NC(C)C)ccc1OCC(=O)Nc1ccc2c(c1)OCCO2,i,-0.1,0.68,3.5,1.2,-1,5
Cc1cccc(NS(=O)(=O)c2ccc(C(=O)NCC(c3ccccc3)N(C)C)cc2)c1C (stereo unspecified),i,0.1,0.67,4.0,0.5,-14,3
COc1ccc(N2CCN(CC(O)COc3c(OC)cccc3OC)CC2)cc1 (stereo unspecified),i,5.9,0.66,-2.5,2.2,43,0
CN1C(=O)C2C(c3ccc(N(C)C)cc3)NN(Cc3ccccc3)C2C1=O (stereo unspecified),i,-1.1,0.71,-3.4,1.6,98*,2
Cc1oc(-c2ccc(-c3ccccc3)cc2)nc1CN(CCO)C(C)C,i,1.2,0.68,-2.6,-14,-9,7
COCCNC(=S)NNC(=O)CSCc1ccc(Cl)cc1Cl,i,-2.4,0.7,1.7,1.6,-5,-4
Cc1occc1C(=O)NCc1nc(-c2ccc(Cl)cc2)no1,i,-1.3,0.68,-0.9,-0.8,-18,1
O=C1c2ccccc2NC(c2ccc(-c3ccc(Br)cc3)o2)N1O (stereo unspecified),i,-6.5,0.62,2.1,-12,4,2
Cc1cc2ccccc2c(=O)n1CC(=O)Nc1ccc2c(c1)OCCO2,·,1.2,0.66,-6.7,-5.5,-7,-4
CC1CCCC(NC(=O)CN(C)S(=O)(=O)c2cccc3cccnc23)C1C (stereo unspecified),i,1.8,0.73,4.1,4.3,23,3
Cc1ccc(OCCn2c(=S)[nH]c3c(N)ncnc32)cc1,i,-5.9,·,-7.1,·,·,0
Cn1c(=O)[nH]c(=O)c2c1nc(N)n2Cc1ccccc1,i,-1.9,0.66,-2.6,2.4,7,1
COc1ccc(-c2cc(C(=O)Nc3cccnc3)no2)cc1OC,i,2.6,0.62,-6.4,-0.4,5,-1
